Screening data deposited in PubChem BioAssay by several laboratories.
PrP UTR inh – inhibition of PrP 5' UTR reporter expression; cell-based PrP 5' UTR mRNA reporter, plate reader; inhibition, % (no concentration beside the values); actives 0.35% (n = 340,000);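 active means every replicate at 50% or more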;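 further: 0 = median of the neutral control wells; tested in H4 reporter cells; numbers are from one replicate; inactives centre near -14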
ugtP null kill – growth inhibition of ugtP-null S. aureus, primary screen, RN4220 ugtP deletion, OD600. 16 h; some inactives read as strong as hits. growth inhibition, % (concentration not given with the values). actives 0.54% (n = 330,000);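 active means z-score under -3 and OD600 up to 0.15 on both plates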;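 further: plate controls were untreated wells for no effect and antibiotic for full effect; wells of about 80 µL received 100 nL stock; the first replicate is given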
RN4220 kill – growth inhibition of S. aureus RN4220, primary screen, OD600. inhibition, % (no concentration beside the values). actives 0.33% (n = 330,000). 16 h. AID 1259311, 2017;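 active means z-score of -3 or lower and OD600 up to 0.18 on both plates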;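 further: plate controls were untreated cells for no effect and reference antibiotic for full effect; stock transfer was 100 nL into about 80 µL; one replicate is shown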
BJeLR viability – MLPCN primary cell-based screen for lethality selective to Ras in HRASV12 cells; BJeLR (HRASV12) viability, CellTiter-Glo ATP luminescence, 48 h; reference of the scale not given here; inhibition, % (test concentration not listed); actives 0.17% (n = 300,000); AID 1554, 2009;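 active means replicate mean above 50%; inconclusive means above 50% but judged a plate artefact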;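 further: 50 nL library stock added to about 25 µL; numbers are from one replicate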
Mtb hypoxia rep – PubChem AID 1159583. M. tuberculosis hypoxia-regulated fluorescent reporter, fluorescence. fluorescence inhibition, % (no concentration beside the values). actives 0.1% (n = 300,000);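 active means 35 to 45% if threefold the growth effect, above 45% if 1.5-fold the growth effect; inactive means the rest, general growth blockers included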;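 further: wells of about 50 µL received 100 nL stock; 0% = vehicle wells and 100% = reference inhibitor wells; whole bacteria with a GFP reporter of the hypoxia response; strong numbers were not always called active; many hits fall short of the cut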
Bead autofluor – compound fluorescence in toxin protease inhibitor counterscreen; compound autofluorescence counterscreen, microsphere flow cytometry; stronger effect = higher value; fluorescence intensity (test concentration not listed); actives 3.1% (n = 360,000); AID 624483;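 active means at least 3 SD above the mean of all compounds, about 16000 in these data; inconclusive means too few beads counted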;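 further: 100 nL of 1 mM stock went into each well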
Mtb hypoxia rep growth – further read-out of Mtb hypoxia rep, marked with its call; growth inhibition, %; measured here: M. tuberculosis growth (absorbance);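 0% = vehicle and 100% = reference antibiotic; read after six days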
* hit, by the source's call; u = inconclusive; x = not tested or not shown. No enrichment for hits; any-hit rate near 3.9%.

mol	PrP UTR inh	ugtP null kill	RN4220 kill	BJeLR viability	Mtb hypoxia rep	Mtb hypoxia rep growth	Bead autofluor
Cc1ccc(C)c(NS(=O)(=O)c2ccc3[nH]c(=O)[nH]c3c2)c1	-129	12	5.1	-1	-6	0	4373
O=S(=O)(c1ccc(Cl)cc1)n1ccc2cccnc21	-15	3	7.2	-2	20	18	4148
O=C(O)CCC(=O)N(Cc1cccs1)Cc1cccs1	-14	0	2.9	-6	11	14	9341
CCOC(=O)/C(C)=C1\NC(C)(C)Cc2ccccc21	-6	x	x	2	x	x	1981
Cc1ccc(C(=O)N2CCN(C)CC2)cc1S(=O)(=O)N1CCCCC1	-16	6	3.1	-7	3	1	11077
Cc1cc(N)n(-c2ccc(Oc3ccccc3)c(S(=O)(=O)O)c2)n1	-25	3	0.6	4	1	2	3763
Cc1cscc1NC(=O)/C=C/C(=O)O	-12	6	3.1	10	-4	5	3373
O=C(CNc1ccc(C(F)(F)F)cc1[N+](=O)[O-])OCC(=O)c1ccccc1	-2	-6	3.3	-13	x	x	2106
CC1(C)C(C(=O)NCc2ccco2)C1(C)C	0	8	-0.9	-2	x	x	5972
CCCNC(=O)Cn1cc(S(=O)(=O)N2CCCC2)c(S(=O)(=O)N2CCCC2)c1	-11	4	1.7	-9	16	3	6440
CCOc1cc2c(cc1/C=C(/C#N)c1ccc(C(=O)O)cc1)OCO2	-19	0	2.6	-2	-4	4	4694
COc1ccc(CNc2ncc(-c3cccc([N+](=O)[O-])c3)n2C)c(OC)c1OC	0	4	2.9	-4	-17	6	4337
O=C1COc2ccc(S(=O)(=O)Nc3ccc(OC(F)(F)F)cc3)cc2N1	-25	-9	-0.5	0	-3	5	5524
Cc1ccc2nc(-c3ccccc3Cl)cc(C(=O)Nc3cc(C)on3)c2c1	-22	1	0.3	5	x	x	5008
CS(=O)(=O)N1CCC(C(=O)NCc2ccc3c(c2)OCO3)CC1	0	2	12	-7	3	8	3169
O=C(N/N=C1/CC2C=CCC12)c1ccc(Br)o1 (stereo not given)	-33	x	x	-4	x	x	8478
O=C(/C=C\NCC(=O)c1ccccc1)c1ccccc1	-11	7	4.9	-1	1	-4	21764*
COc1ccc(CCNC(=O)CCNC(=O)c2ccco2)cc1	-4	3	1.5	3	-3	6	5985
O=C(Nc1ccc(Br)c(C(F)(F)F)c1)c1ccc(C(F)(F)F)cc1	x	99*	101*	8	x	x	5834
CCOC(=O)C1=C(CSc2nc(-c3ccccc3)ccc2C#N)OC(N)=C(C#N)C1c1ccc(OC)cc1 (stereo not given)	-53	3	-10	6	x	x	4352

Sorted by heavy-atom count (rising): some entries from above.
mol	PrP UTR inh	ugtP null kill	RN4220 kill	BJeLR viability	Mtb hypoxia rep	Mtb hypoxia rep growth	Bead autofluor
CC1(C)C(C(=O)NCc2ccco2)C1(C)C	0	8	-0.9	-2	x	x	5972
O=S(=O)(c1ccc(Cl)cc1)n1ccc2cccnc21	-15	3	7.2	-2	20	18	4148
COc1ccc(CCNC(=O)CCNC(=O)c2ccco2)cc1	-4	3	1.5	3	-3	6	5985
Cc1cc(N)n(-c2ccc(Oc3ccccc3)c(S(=O)(=O)O)c2)n1	-25	3	0.6	4	1	2	3763
Cc1ccc(C(=O)N2CCN(C)CC2)cc1S(=O)(=O)N1CCCCC1	-16	6	3.1	-7	3	1	11077
O=C1COc2ccc(S(=O)(=O)Nc3ccc(OC(F)(F)F)cc3)cc2N1	-25	-9	-0.5	0	-3	5	5524

The results go on.
mol	PrP UTR inh	ugtP null kill	RN4220 kill	BJeLR viability	Mtb hypoxia rep	Mtb hypoxia rep growth	Bead autofluor
CCN(CC(=O)Nc1ccc2c(c1)OCCO2)C(=O)c1ccc(S(=O)(=O)N(C)C)cc1	7	3	-1.1	2	-8	-1	5277
CCc1cccc2c(C(=O)C(NCCCOC)c3ccccc3)c[nH]c12 (stereo not given)	-24	-4	0.3	4	12	1	4033
CC(=O)c1ccc(N2CCN(C(=O)c3ccc(-c4ccccc4)cc3)CC2)cc1	-33	4	8.3	-19	-4	4	3640
CCN(CCCNC(=O)C1CCN(S(=O)(=O)c2cccc3nonc23)CC1)Cc1ccccc1	-19	3	0.6	0	x	x	3638
OC(CCN1CCCCC1)(c1ccccc1)C1CCCCC1 (stereo not given)	-11	-4	2.6	1	4	0	5378
COc1ccc(N(CC(=O)N/N=C/c2ccc3c(c2)OCO3)S(=O)(=O)c2ccc(NC(C)=O)cc2)cc1	-24	x	x	-1	x	x	2511
NC(=O)c1cc2ccccc2o/c1=N\NC(=O)c1ccco1	-16	x	x	0	x	x	2008
O=C(NC(=S)NCc1ccco1)c1ccccc1[N+](=O)[O-]	5	-1	6.6	-1	3	0	4093
O=C(O)C(Oc1ccc2c3c(c(=O)oc2c1)CCC3)c1ccccc1 (stereo not given)	-22	10	6.0	-5	12	12	4009
Cc1ccc(CSCCNC(=O)CN(c2cc(C)ccc2C)S(C)(=O)=O)cc1	-17	-12	5.5	6	2	-2	3216
O=c1cc(N2CCCC2)[nH]c(=O)n1-c1ccc(Cl)cc1	-10	5	6.1	-5	14	6	5695
O=C(N/N=C/c1cc(Br)ccc1O)c1cccc(N2CCCC2=O)c1	9	x	x	4	x	x	2452
C=CCN=C(NC#N)SCC(=O)NC(C)(C)C	-26	-5	3.5	-1	x	x	4954
CCOc1ccc(C(=O)CCN2CCOCC2)cc1	1	10	5.9	1	22	5	x
COc1ccc(NC(=O)CN(C)C(=O)C2CC(=O)N(c3cccc4ccccc34)C2)cc1 (stereo not given)	2	8	1.2	x	4	9	8551
COc1ccccc1CNC(=O)[C@@H]1CCCN1S(=O)(=O)c1ccccc1F	-5	9	3.1	-2	18	4	3461
Cc1ccc(-n2cccc2/C=C2\C(=N)N3N=C(C(C)C)SC3=NC2=O)cc1	-42	-11	1.3	-8	1	0	2214
O=C(Nc1ccccc1)c1ccc(F)cc1F	-54	4	3.8	4	6	5	3842
Cc1cc(C)cc(N(CC(=O)NC2CCC(C)CC2)S(=O)(=O)c2c(C)noc2C)c1 (stereo not given)	-25	4	6.6	x	x	x	5277
O=C(NCC(=O)N1CCN(Cc2ccccc2)CC1)c1ccc(Cl)cc1	-18	6	1.6	7	1	1	5020
O=C(CCCn1c(=O)c2cccn2c2cccnc21)NCc1cccc(Br)c1	-15	-1	-0.2	8	-16	-2	5812
CC(C)c1noc2ncc(C(=O)c3cc(Cl)cc(Cl)c3O)cc12	-11	3	-12	0	-2	3	3350
CC1CN=C(Nc2ccccc2)N1CCCC1CCCC1 (stereo not given)	x	0	5.1	x	7	7	x
O=C(CCCN1C(=O)/C(=C/c2cccs2)SC1=S)NNC(=O)c1cccnc1	-13	-12	7.6	16	8	18	3836
O=C(Nc1ccncc1)c1cccs1	-17	1	2.0	x	x	x	4628
CCCC1=[N+](CC)CCn2c(C)ccc21	-12	10	3.7	-2	8	4	5291
Cc1nn(-c2ccccc2)c2c1C(c1cccs1)C(C#N)=C(N)O2 (stereo not given)	-4	x	x	-3	x	x	5486
Cc1ccc(C(=O)NN2CCOCC2)cc1	-17	-8	2.7	6	4	8	19445*
COc1ccc(NS(=O)(=O)c2ccc3c(c2)n(C)c(=O)n3C)cc1	1	4	1.2	1	-2	6	4364
CCc1ccc(C(=O)C(C)OC(=O)Cn2[nH]c(=O)c3ccccc3c2=O)cc1 (stereo not given)	8	11	4.9	x	3	4	4768
O=[N+]([O-])c1ccccc1/C=N/N1CCN(c2ccncc2S(=O)(=O)N2CCCCC2)CC1	-8	x	x	1	x	x	1955
COc1ccc(C(=O)Cn2nnc(-c3ccccc3NC(=O)c3ccco3)n2)cc1	-6	-10	12	-2	12	6	3530
CC(=O)NCc1ccc(C(=O)CSc2nnc(-c3ccncc3)n2Cc2ccccc2)o1	2	9	9.9	1	5	6	3271
N#Cc1cc(C(=O)c2cc(Cl)ccc2O)cn(-c2ccccc2)c1=O	-10	4	-3.6	-2	0	10	1931
CCCn1c(N)c(N(CCOC)C(=O)CSCC(=O)Nc2ccc(C)cc2)c(=O)[nH]c1=O	-8	0	2.2	x	4	5	4418
Cc1occc1-c1nnc(SCC(=O)NC2CCCCC2C)o1 (stereo not given)	-14	2	1.7	x	0	10	u
COC(=O)C1=C(c2cccc(OCc3ccccc3)c2)CC2CCC1N2C(=O)NCCOc1ccccc1Cl (stereo not given)	x	5	-9.4	x	6	10	x
CC(=O)NS(=O)(=O)c1ccc(NC(=O)c2cc(-c3ccc(C)c(C)c3)nc3ccccc23)cc1	2	-2	-2.9	-8	x	x	4882
CCOC(=O)C1C(=O)C=C(c2cccs2)CC1c1ccccc1C (stereo not given)	-3	-2	7.1	-4	5	6	2722
Cc1ccc(C(=O)Nc2ccccc2C(=O)NCC2CCCO2)cc1 (stereo not given)	-15	5	-0.3	0	6	-2	4349
CCOC(=O)c1c(NC(=O)C2COc3ccccc3O2)sc(C)c1C (stereo not given)	-15	43	6.0	-12	x	x	3295
COc1ccc(C(=O)Nc2ccc(S(=O)(=O)N3CCCC3)cc2)cc1[N+](=O)[O-]	-21	-2	0.4	8	-2	-5	5224
COc1ccc(Cc2nn3c(-c4cc(OC)c(OC)c(OC)c4)nnc3s2)cc1	-14	-1	7.8	-1	11	11	8693
O=C(NCCS(=O)(=O)c1ccc(Br)cc1)c1ccc(F)cc1	0	0	-0.4	-3	-11	-4	5333
O=C(c1cccnc1)N1CCN(C/C=C/c2ccccc2)CC1	-16	2	-7.1	5	4	8	3542
O=C(COC(=O)/C=C/c1cccc(F)c1)NC(=O)NCc1ccccc1	-20	-6	3.9	x	-9	4	3710
Cc1ccccc1-c1ccnc2[nH]n(-c3ccccc3)c(=O)c12	-14	7	-9.2	6	5	14	3478
NCCCCCc1nnc(SCc2ccc(Cl)cc2Cl)o1	-11	11	1.0	3	11	-2	u
CCCCNC(=O)c1onc(CSc2cccc(OC)c2)c1C(=O)NCCCC	-16	-35	-1.8	0	6	10	3616
COC(=O)c1[nH]c2cc(OC)c(OC)cc2c1NC(=O)c1cccc(OC)c1	-10	-10	3.8	2	x	x	3795
CCOC(=O)C1CCCN(c2c(NCCc3cccc(C)c3)c(=O)c2=O)C1 (stereo not given)	-27	4	3.0	-6	-2	4	4136
CCCCn1c(N)c(N(CC)C(=O)c2cc(Br)ccc2Cl)c(=O)[nH]c1=O	-23	3	6.6	-2	14	-2	3419
O=C(NNC(=O)c1ccccc1O)c1ccc(NS(=O)(=O)c2ccc(F)c(F)c2)cc1	-6	-4	4.1	8	10	-5	5720
CS(=O)(=O)c1ccc(Cl)c(NC(=O)CSc2n[nH]c(N)n2)c1	-7	1	0.0	-2	-5	-7	5981
COc1ccc2[nH]cc(CCN=C(N)N)c2c1	-11	7	5.3	-6	3	5	3622
COc1cccc2c1OC[C@@H](CO)[C@H]2N(C)C(=O)Nc1ccccc1	-15	-1	4.4	0	5	7	10260
COc1ccc(C2=NOC(Cn3nc(C(=O)NCc4ccc(C)cc4)cc3-c3ccccc3)C2)cc1 (stereo not given)	-22	2	6.7	15	10	6	3420
Cc1ccc(-c2cc(C(=O)N/N=C/c3c(C)nn(-c4ccccc4)c3C)n[nH]2)s1	-7	x	x	48	x	x	2083
Cc1nn(-c2ccccc2)c(Cl)c1C=NNC(=O)c1nn(C)cc1[N+](=O)[O-]	x	3	-0.2	x	2	3	x
CCc1ccc(C(C(=O)NCCOC)N(C(=O)Cn2nnc3ccccc32)c2cccnc2)cc1 (stereo not given)	-3	7	4.1	-5	8	1	6641
Oc1ccc(C=NNC(=S)NCc2ccco2)cc1	x	1	3.5	x	5	5	x
Cc1nc(N2CCN(c3ccccn3)CC2)c2c(C)c(C(=O)N3CCN(c4ccc(F)cc4)CC3)sc2n1	-13	14	2.3	0	11	8	4240
CN(Cc1ccccc1)c1nc(-c2cccc([N+](=O)[O-])c2)nc2ccccc12	3	9	0.8	-5	-2	5	8171
